H5N1 antiviral – antiviral screen in MDCK cells, H5N1 avian flu | 0.07% of 96,000 active | cytopathic effect, luminescence, 72 h; active compounds read high; no value below 0 was filed and about half of the inactive calls have no number; reference of the scale not given here | inhibition, % at 50 µM; in the data active = inhibition above about 25%
* hit, by the source's call; i = inactive. The list is partial; count on the stated rates, not on these rows.

SMILES	H5N1 antiviral
O=C(NC1CCCCC1)N1CCC(c2nc3ccc(Cl)cc3[nH]2)CC1	1.2
CN(CC(=O)OCC(=O)Nc1ccccc1)S(=O)(=O)c1ccc(Cl)cc1	i
CN(C)CP(=O)(O)CN(C)C=O	i
Cc1ccc(OCCn2c(CCNC(=O)C(C)C)nc3ccccc32)cc1	i
CCOc1ccc(-c2cc(C(=O)N3CCN(c4ccccn4)CC3)c3ccccc3n2)cc1	i
CN1CC(c2ccccc2)C2(SC(=S)N(Cc3ccco3)C2=O)C12C(=O)Nc1ccccc12 (configuration not stated)	i
Cc1ccc(-c2nnc(N3CCN(c4ccccn4)CC3)c3ccccc23)cc1	2.7
CCC(=O)Nc1sc2c(c1C(N)=O)CCC2	0.7
COc1ccc(C2=NOC(C(=O)NCc3ccccn3)C2)cc1 (configuration not stated)	0.5
COc1ccccc1C(=O)N1CCNC(=O)C1CC(=O)Nc1cccc(C)c1 (configuration not stated)	1.0

7 compounds picked at random from the list so far:
SMILES	H5N1 antiviral
CN1CC(c2ccccc2)C2(SC(=S)N(Cc3ccco3)C2=O)C12C(=O)Nc1ccccc12 (configuration not stated)	i
COc1ccccc1C(=O)N1CCNC(=O)C1CC(=O)Nc1cccc(C)c1 (configuration not stated)	1.0
Cc1ccc(-c2nnc(N3CCN(c4ccccn4)CC3)c3ccccc23)cc1	2.7
Cc1ccc(OCCn2c(CCNC(=O)C(C)C)nc3ccccc32)cc1	i
COc1ccc(C2=NOC(C(=O)NCc3ccccn3)C2)cc1 (configuration not stated)	0.5
CN(CC(=O)OCC(=O)Nc1ccccc1)S(=O)(=O)c1ccc(Cl)cc1	i
O=C(NC1CCCCC1)N1CCC(c2nc3ccc(Cl)cc3[nH]2)CC1	1.2

Remaining list, next part.
SMILES	H5N1 antiviral
Cc1ccc(Nc2nnns2)cc1C	1.0
COc1cc(NS(=O)(=O)c2ccc(NC(=O)NC3CCCCC3)cc2)nc(OC)n1	1.5
Cc1ccccc1-c1nc(CN2CCC(C(=O)NCc3cccnc3)CC2)c(C)o1	i
Cc1ccc(Sc2ncnc3onc(C)c23)cc1	i
COc1ccc(S(=O)(=O)N2CCN(C(=O)c3cnc(C)cn3)CC2)cc1	i
CCN(CC)S(=O)(=O)c1cccc(C(=O)N[C@H](C(=O)OCC(=O)NC(=O)NC)C(C)C)c1	i
COc1ccc(-c2nc3ccccc3c(=O)n2CCN2CCOCC2)cc1	i
Cc1cc(C(F)(F)F)nn1CC(=O)NCC1CCCO1 (configuration not stated)	i
CCOc1ccc(-c2cnc3n2CCC3)cc1	5.3
O=C(O)c1cc(S(=O)(=O)Nc2ccccc2C(=O)O)ccc1O	i

In another format: 2 of the compounds above
| Structure | H5N1 antiviral |
| --- | --- |
| Cc1ccc(Sc2ncnc3onc(C)c23)cc1 | i |
| COc1ccc(S(=O)(=O)N2CCN(C(=O)c3cnc(C)cn3)CC2)cc1 | i |

Additional structures
SMILES	H5N1 antiviral
O=C(Nc1ccn(Cc2ccccc2F)n1)c1ccc(COc2cccc(Br)c2)cc1	i
CCN(CC)C(=O)CSc1nnc(-c2cccnc2)n1Cc1ccccc1	0.1
CCn1c(=O)cc(SCC(=O)Nc2ccc(Cl)cc2)c2ccccc21	i
COc1ccc(Cl)cc1N(CC(=O)N1CCC(C)CC1)S(C)(=O)=O	4.4
CCN(CC)CCn1c(NCc2ccco2)nc2ccccc21	11.7
O=C(Cn1cnc2sc(-c3ccccc3)cc2c1=O)NCc1ccccc1	i
COc1ccc(CN2CC(C(=O)NCc3ccc4c(c3)OCO4)CC2=O)cc1 (configuration not stated)	i
COc1ccc(C(=O)N2CCN(C(=O)c3cc(OC)c(OC)c(OC)c3)CC2)cc1	0.7
COc1ccc(C(=O)Nn2cnc3scc(-c4cccs4)c3c2=O)c(O)c1	i
O=C(CN(c1ccc(F)cc1)S(=O)(=O)c1ccc2c(c1)OCCO2)Nc1ccccc1	i
CCOc1cc2[nH]c(=S)n(CCCOC)c(=O)c2cc1OCC	0.6
O=C(CN1CCN(Cc2ccc(F)cc2)C1=O)NCc1cccs1	0.7
CC(C)C12CN3CCN(CC(C3)/C1=N\O)C2	0.5
O=C1CC(c2cccc(Cl)c2)Cc2nc(N3CCOCC3)ncc21 (configuration not stated)	0.7
O=C(N/N=C/c1ccc2cccc(OCc3ccccc3)c2n1)c1ccc(Br)cc1	0.3
O=C(Oc1cccc2cccnc12)c1ccc2c(c1)OCCO2	1.7
Cc1cc(NC(=O)CCC(=O)N(Cc2cccs2)C(C(=O)NC2CCCC2)c2cccnc2)no1 (configuration not stated)	0.7
CCCCOC(=O)CCc1c(C)[nH]c(=O)c(C#N)c1C	1.4
c1ccc(-c2nn3c(Cn4cnc5ccccc54)nnc3s2)cc1	2.2
Cc1ccc(NS(=O)(=O)c2cc(C(=O)O)ccc2Cl)c(C)c1	i
CC(C)OC(=O)CSc1nnc(-c2cccnc2)n1N	0.5
COc1cc(-c2nn3c(-c4ccccc4)nnc3s2)cc(OC)c1OC	1.4
CC(C)Cc1cc(C(=O)Nc2c(F)cc(F)cc2Br)no1	i
CCOc1ccc(-n2c(Cc3cc(=O)[nH]c(=O)[nH]3)nnc2SCC(=O)OC)cc1	i
C=CCn1c(SCC(=O)OC)nc2sc3c(c2c1=O)CCN(C)C3	3.0
COc1cc(/C=N\NC(=O)c2ccc(Cn3nc([N+](=O)[O-])c(Cl)c3C)o2)ccc1O	i
COc1ccc(C2CC(=O)C3=C(C2)Nc2ccccc2N(C(=O)C2CC2)C3c2cccnc2)cc1OC (configuration not stated)	0.4
CN(C)S(=O)(=O)c1cccn1-c1ncc(C(F)(F)F)cc1Cl	i
C=CCn1c(N)c(C(=O)OC(C)CC)c2nc3ccccc3nc21 (configuration not stated)	i
CC(C)n1nnnc1SCC(=O)NCc1ccc2c(c1)OCO2	i
CCOC(=O)C(=O)/C(=C\N(C)C)c1onc(-c2ccccc2Cl)c1C(=O)OC	0.3
Cc1cc(C)cc(NCC(=O)Nc2c(C)cccc2C)c1	i
CSc1cccc(NS(=O)(=O)c2ccc3c(c2)oc(=O)n3C)c1	3.3
Cc1ccc(N(C(=O)c2sc(C)nc2C)C(C(=O)NCc2ccco2)c2ccccc2)cc1 (configuration not stated)	i
COC(=O)c1ccc(Oc2nc(N(C)C)nc(N3CCOCC3)n2)cc1	i
O=[n+]1c2c(n([O-])c3c1CCCC3)CCCC2	i
O=C(CSCc1ccccc1)N1CCN(C(=O)c2ccco2)CC1	i
COc1ccc(-n2nnnc2-c2cccc(OC)c2)cc1	i
Cc1ccc(N=Nc2ccc(O)c(/C=N\NC(=O)c3ccc(N)cc3)c2)cc1C	0.7
CC(Sc1n[nH]c(=O)[nH]c1=O)C(=O)OCc1ccccc1 (configuration not stated)	i
C[N+](C)(C)CCCN1C(=O)CCCC1=O	i
Cc1ccc(S(=O)(=O)NCc2csc(C)n2)c(C)c1	3.4
COCCCNC(=O)c1c(NC(=O)C2COc3ccccc3O2)sc2c1CCCC2 (configuration not stated)	0.3
CN(C)c1ccc(-c2noc(-c3ccccc3O)n2)cc1	i
O=C(Oc1ccccc1C(=O)N1CCOCC1)c1cccc(Br)c1	i
CC1CCCN(c2oc(-c3cccc4ccccc34)nc2C#N)C1 (configuration not stated)	i
CC(=O)C1=C(C)NC(SCC(=O)c2ccc(Cl)cc2)=C(C#N)C1CC(C)C (configuration not stated)	i
CCN1CCN(CCCNC(=O)c2cc3cc4ccc(OC)cc4nc3o2)CC1	1.5
CC1(C)N=C(c2ccccn2)C(C)(C)N1O	i
COCCN1Cc2cccc(C(=O)N3CCN(c4cc(C)ccc4C)CC3)c2C1=O	0.5

The listing continues.
SMILES	H5N1 antiviral
CCS(=O)(=O)c1ccc2c(c1)N(S(=O)(=O)c1ccccc1)CC(C(=O)O)O2 (configuration not stated)	i
C[N+]12CCCCC1C(COC(=O)c1ccc3c(c1)OCO3)CCC2 (configuration not stated)	i
O=c1c(Oc2ccccc2Br)c(C(F)(F)F)oc2c(CN3CCCC3)c(O)ccc12	i
CCOC(=O)C1=NN(c2ccc(C)cc2)C2(S1)SC(C(C)=O)=C(C)N2c1ccccc1 (configuration not stated)	0.3
O=C(Nc1ccc2c(c1)CCC2)C1CCN(c2c3c(nc4ncnn24)CCC3)CC1	i
COc1cccc(-c2nc(CS(=O)(=O)CC(=O)N3CCN(C4CCCCC4)CC3)c(C)o2)c1	i
Cc1cccc(/C=N/NC(=O)c2cc3c(s2)-c2ccccc2CC3)c1	1.0
CC(C)(C)c1cc(C(=O)O)c(CN2CCCCC2)o1	0.1
O=C(NCc1ccco1)C1CC(c2c(Cl)cccc2Cl)=NO1 (configuration not stated)	2.5
Cc1ccc(C(=O)NC(=S)Nc2ccc(Oc3ccc(Cl)cc3)cc2)cc1	i
O=C(Nc1ccc2nc(-c3cccs3)[nH]c2c1)c1ccco1	1.4
CCOc1cc(S(=O)(=O)NCC2OCCc3ccccc32)c(OCC)cc1-n1cnnn1 (configuration not stated)	1.1
Cc1ccc(S(=O)(=O)C(C#N)c2nc3ccccc3nc2N2CCC(C)CC2)cc1 (configuration not stated)	0.4
CSc1ncc2c(n1)-c1cc(C)ccc1SC2	i
Cc1cc(-n2c(SCCC#N)nnc2-c2cccnc2)ccc1Cl	i
c1ccc(Cn2c(CN3CCCC3)nc3ccccc32)cc1	i
C=CCn1c(SCc2cc(=O)n3ccsc3n2)nnc1C1CCCCC1	i
OC1=C(O)c2nc3ccccc3nc21	i
Cn1c(=O)oc2cc(S(=O)(=O)NCc3ccccc3)ccc21	0.6
O=C(O)CCCC(=O)Nc1nc(-c2ccc(F)cc2)cs1	0.2
CCc1nnc(NC(=O)C(C)Sc2ccccc2)s1 (configuration not stated)	1.9
COC(=O)c1cccc(NC(=O)Cn2nnc3ccccc32)c1	i
CN(C)S(=O)(=O)N1CCN(C(=O)N(c2ccccc2)c2ccccc2)CC1	0.6
COc1ccc2c(c1)CCc1c(C(=O)N3CCCC3)noc1-2	i
Cc1ccc(Oc2nsnc2N2CCOCC2)cc1	i
COCc1c(C(N)=O)nnn1-c1nonc1N	0.0
CCn1c(SCC(=O)Nc2ccccc2-c2ccccc2)nnc1-c1ccoc1C	i
O=C(Nc1ncnc2sc3c(c12)CCCCC3)c1ccc(F)cc1	1.0
CCNC(=O)COC(=O)c1ccc(S(=O)(=O)N2CCCCCC2)cc1	0.0
COc1cc(CNC(=O)OCC(C)C)cc(OC)c1OC	0.4
c1coc(CNCCCN2CCOCC2)c1	0.5
CS(=O)(=O)N1CCCC(C(=O)NCCc2ccccc2)C1 (configuration not stated)	i
O=c1c2ccccc2n2cnnc2n1-c1ccccc1	0.3
COC(=O)c1sc(NC(=O)c2ccco2)nc1C	i
O=C(NCCc1csc(-c2cccnc2)n1)c1cccc2ccccc12	1.1
O=C(CSc1oc(-c2ccc(F)cc2)nc1S(=O)(=O)c1ccccc1)NCC1CCCO1 (configuration not stated)	1.8
Cc1occc1C(=O)Nc1c(F)cc(F)cc1Br	2.8
COc1cccc(NC(=S)/C(=C(\[O-])c2ccc(C)c([N+](=O)[O-])c2)[n+]2ccccc2)c1	0.6
CCOC(=O)c1ccc(CNC(=O)C2CCCCC2C(=O)OCC(F)(F)F)o1 (configuration not stated)	1.6
Cc1cccc(NC(=O)C(c2cccc([N+](=O)[O-])c2)N2CCCCC2)c1 (configuration not stated)	2.0

In another format: entries from further up
CCOC(=O)c1ccc(CNC(=O)C2CCCCC2C(=O)OCC(F)(F)F)o1 (configuration not stated)
  H5N1 antiviral = 1.6
Cc1cccc(NC(=O)C(c2cccc([N+](=O)[O-])c2)N2CCCCC2)c1 (configuration not stated)
  H5N1 antiviral = 2.0

(cont.)
SMILES	H5N1 antiviral
CCOC(=O)c1[nH]c(C)c(C(=O)N2CCC3(CC2)OCCO3)c1C	i
CNC(=O)CN1C(=O)c2ccccc2S1(=O)=O	0.1
COc1cc(C(=O)Nc2ccc(S(=O)(=O)NC(C)C)cc2)cc(OC)c1OC	i
O=C(Nc1nc(-c2cccnc2)cs1)c1ccc(S(=O)(=O)N2CCOCC2)cc1	0.4
CCc1nc(C)cc(N)c1OCc1ccccc1	i
COC(=O)c1cc2sccc2n1Cc1nc(-c2ccc(OC)cc2)oc1C	i
Fc1ccc2c(c1)[C@H]1OCC[C@H]1[C@@H](c1ccco1)N2	0.2
CCCCC(=O)NC1(C(F)(F)F)C(=O)Nc2c1c(=O)[nH]c(=O)n2Cc1ccco1 (configuration not stated)	2.8
O=C(C1CCC(C(=O)N2CCc3ccccc32)CC1)N1CCc2ccccc21 (configuration not stated)	i
Cc1ccc(S(=O)(=O)CC(=O)c2ccccc2)cc1	1.3
CN(CC(N)=O)S(=O)(=O)c1ccc(F)cc1	i
O=C(Nc1ccc(S(=O)(=O)N2CCc3ccccc3C2)cc1)C1CCCO1 (configuration not stated)	6.9
CCN(CC)CC(O)COc1ccc2c(c1)OCO2 (configuration not stated)	0.6
Cc1c([N+](=O)[O-])c(C(=O)Nc2ccc3c(c2)OCCO3)nn1C	4.2
CCCCn1c(NC(=O)c2ccccc2)c(C#N)c2nc3ccccc3nc21	0.4
OC(COc1ccc2ccccc2c1Cl)CN1CCOCC1 (configuration not stated)	i
COc1cccc(N=Nc2c(N)[nH]n3c(=O)cc(-c4ccccc4)nc23)c1	0.2
CCC(C)n1nccc1NC(=O)C(C)OC(=O)c1cc2ccccc2[nH]1 (configuration not stated)	0.3
C=CCn1c(CCNC(=O)c2cccs2)nnc1SCC(=O)c1ccc(Cl)cc1	1.4
CC1CN(C(=O)CSc2nc(-c3ccccc3)cs2)CC(C)O1 (configuration not stated)	i

Some of these compounds in order of heavy-atom count, lowest first.
SMILES	H5N1 antiviral
CCNC(=O)COC(=O)c1ccc(S(=O)(=O)N2CCCCCC2)cc1	0.0
O=C(N/N=C/c1ccc2cccc(OCc3ccccc3)c2n1)c1ccc(Br)cc1	0.3
COc1cccc(-c2nc(CS(=O)(=O)CC(=O)N3CCN(C4CCCCC4)CC3)c(C)o2)c1	i

The list goes on.
SMILES	H5N1 antiviral
Oc1ccc(/C=N/NP(=S)(c2ccccc2)c2ccccc2)cc1	i
O=S(=O)(Nc1cccnc1)c1ccc(C2CCCCC2)cc1	1.7
Nc1ccc(C2(c3ccc(N)cc3)C(=O)Nc3ccccc32)cc1	i
S=C(c1ccc(Cl)cc1)N1CCOCC1	1.0
Cc1ccc(-n2c(Cc3cccs3)nnc2SCC(=O)OC(C)C)cc1	i
CCOC(=O)N1CCC2(CC1)C(C#N)=C(N)OC1=C2C(=O)CC(C)C1 (configuration not stated)	i
COC(=O)c1sc(NC(=O)Cc2cccs2)nc1C	i
CC(C)(C)N(Cc1ccccc1)C(=O)CSc1nnc(CNc2ccc(F)cc2)o1	4.4
